Cruzain inh Det – cruzain (T. cruzi) inhibition with detergent. purified cruzain, Z-FR-AMC fluorescence, 0.01% Triton. 200,000 compounds, 0.43% hits. AID 1478. P25779. Potency, µM, without a hit: max response, negative = inhibition, actives largely listed as inhibitors; active = well fitted curve in the direction sought with a large enough effect; inconclusive = small, poorly fitted or top-dose-only effect, or another doubt; inactive = no such curve, though single readings can be large; an effect the other way counts as inactive or inconclusive;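 note: plate controls were neutral wells for no effect and buffer without enzyme for full effect; nearly all actives have a fitted effect of over 40% in size; top concentration of the series not given in the record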
Target sequence (P25779 123-467 limits assumed): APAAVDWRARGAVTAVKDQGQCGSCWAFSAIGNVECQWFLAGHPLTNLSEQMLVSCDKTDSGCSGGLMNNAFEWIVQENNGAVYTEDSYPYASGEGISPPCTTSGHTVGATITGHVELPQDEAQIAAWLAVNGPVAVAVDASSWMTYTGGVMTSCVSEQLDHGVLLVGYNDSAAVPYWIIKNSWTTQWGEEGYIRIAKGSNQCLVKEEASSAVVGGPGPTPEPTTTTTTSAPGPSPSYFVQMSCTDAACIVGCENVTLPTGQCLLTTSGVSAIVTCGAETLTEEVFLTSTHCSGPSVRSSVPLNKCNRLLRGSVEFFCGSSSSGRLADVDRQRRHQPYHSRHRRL
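15 min RT preincubation of 1.5 nM cruzain with compound, then 2 uM Z-FR-AMC added; kinetic AMC fluorescence, 60 s delta. Triton X-100 0.01%, pH 5.5.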
MARV entry inh – Marburg virus entry inhibition | Potency, µM (titrated, usually from 37.8 µM), for inactives: at the highest dose activity change, negative = inhibition, hits mostly inhibitors | 300,000 compounds, 1.8% hits | Marburg virus pseudotyped entry inhibition, cell reporter; control for the full effect not named in the record; about a third of the inactives were read at about 46 µM; active = well fitted inhibition curve with a large enough effect; inconclusive = small, poorly fitted or top-dose-only effect, or effect the other way; inactive = flat fitted curve, though single readings scatter; tested in HEK293 cells; about a fifth of its hits are not listed in these tables; note: % is set by controls: 0 for no effect and ±100 for the full control effect; luciferase read-out
SARS PLP yeast – blocks SARS-CoV papain-like protease in a yeast assay; 330,000 compounds, 0.19% hits; AID 485353; Potency, µM (highest dose often 32.9 µM), inactives show top-dose activity, positive = growth rescue; S. cerevisiae expressing SARS-CoV PLpro, growth rescue; control for the full effect not named in the record; note: 0% is about no effect; nearly all actives have a fitted effect of over 55% in size; growth read by luminescence after 48 h
RE007 growth inh – less growth of the S. pombe RE007 Vpr strain | S. pombe RE007 Vpr strain, BacTiter-Glo ATP luminescence, 24 h; control for the full effect not named in the record | Potency, µM (top dose mostly 92.2 µM), for the others: at the top dose activity change, negative = less growth | 360,000 compounds, 0.21% hits; active = well fitted falling curve with a large enough effect; inconclusive = small, poorly fitted or top-dose-only effect; inactive = no such curve, though single readings can be large or run the other way;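 note: % is set by controls: 0 for no effect and ±100 for the full control effect; nearly all actives have a fitted effect of over 50% in size; the assay follows cell death caused by Vpr and the record does not say whether a fall means rescue or toxicity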
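Fission yeast RE007 carrying one integrated HIV-1 vpr copy, seeded at OD 0.01 in PMG+AL medium with 23 nL pinned compound. Grown 24 h at 30 degrees; viability read by BacTiter-Glo luminescence after 5 min.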
StopGo reporter – FMDV 2A StopGo reporter, luciferase signal. Potency, µM (titrated, usually from 57.9 µM), without a hit: top-dose signal change, negative = less light. human cells with a luciferase reporter of 2A StopGo recoding; control for the full effect not named in the record. 410,000 compounds, 1.2% hits. AID 1159524; active = well fitted falling curve with a large enough effect; inconclusive = small, poorly fitted or top-dose-only effect; inactive = no such curve, though single readings can be large or run the other way; tested in HEK293T cells; note: % is set by controls: 0 for no effect and ±100 for the full control effect; nearly all actives have a fitted effect of over 45% in size; luciferase light after 4 h
Cruzain noTriton – cruzain (T. cruzi) inhibition without detergent; AID 1476; P25779; Potency, µM, inactives show max response, negative = inhibition, most hits filed as inhibitors; 200,000 compounds, 2.3% hits; purified cruzain, Z-FR-AMC fluorescence, no detergent; active = well fitted curve in the direction sought with a large enough effect; inconclusive = small, poorly fitted or top-dose-only effect, or another doubt; inactive = no such curve, though single readings can be large; an effect the other way counts as inactive or inconclusive;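 note: plate controls were enzyme without inhibitor for no effect and buffer without enzyme for full effect; nearly all actives have a fitted effect of over 40% in size; top concentration of the series not given in the record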
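Purified cruzain at 1.5 nM, pre-incubated 15 min with compound at room temperature in 100 mM sodium acetate pH 5.5, 5 mM DTT, 0.00005% Triton X-100. Reaction started with 2 uM Z-FR-AMC; AMC fluorescence increase over 60 s gives rate.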
Lassa entry inh – Lassa virus entry inhibition; Lassa virus pseudotype entry inhibition, cell reporter; control for the full effect not named in the record; Potency, µM (series often up to 37.9 µM), without a hit: at the highest dose activity change, negative = inhibition, usual class: inhibitors; 300,000 compounds, 1.2% hits; AID 540256; active means well fitted inhibition curve with a large enough effect; inconclusive means small, poorly fitted or top-dose-only effect, or effect the other way; inactive means flat fitted curve, though single readings scatter; tested in HEK293 cells; note: % is set by controls: 0 for no effect and ±100 for the full control effect; nearly all actives have a fitted effect of over 50% in size; luciferase read-out
NS1 function inh – influenza NS1 inhibition | S. cerevisiae slowed by influenza A NS1, growth recovery by OD600 | Potency, µM (series often up to 46.1 µM), without a hit: at the highest dose activity, positive = more growth | 270,000 compounds, 0.4% hits; note: actives are rising curves; nearly all actives have a fitted effect of over 50% in size
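Read-out: OD600 growth recovery of NS1-expressing budding yeast. Cells grown overnight at 30C in -URA glucose medium, washed, resuspended and diluted 1:100 in 2% galactose assay medium, pH 6.0. Same strain lacking NS1 served as positive control.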
Starred values were filed as active, the others as inactive; ? = inconclusive; . = not tested or not shown; [ ] = another dose, or the depositor's remark. Unless noted, calls come from the whole dose curve; as a rule, active means well fitted rising curve with a large enough effect; inconclusive means small, poorly fitted or top-dose-only effect; inactive means no such curve, though single readings can be large or run the other way. Potency is the fitted concentration of half-maximal effect. Random draw from the library (roughly 4.7% active in at least one column).

SMILES	Cruzain inh Det	MARV entry inh	SARS PLP yeast	RE007 growth inh	StopGo reporter	Cruzain noTriton	Lassa entry inh	NS1 function inh
CC(C)n1cnnc1SCC(=O)Nc1ccc(Br)cc1F	.	?	-8%	6%	-11%	.	2%[46.1 µM]	.
Cc1ccc(C)c(Cn2c(SCC(=O)N(C)Cc3ccccc3)nc3ccccc32)c1	-3.2%	.	.	.	-16%	9%	?	.
COc1ccc(/C=N/NC(=O)C2CCN(c3ncc(C(F)(F)F)cc3Cl)CC2)cc1	3.4%	16%	4%	-9%	-18%	-24%	?	-1%
CCn1nnnc1SCC(=O)Nc1cc(OC)cc(OC)c1	4.1%	-3%	2%	-5%	11%	-11%	-2%	2%
COc1cc(OC)cc(C(=O)N2CCN(C3CCN(Cc4ccccc4)CC3)CC2)c1	-0.1%	?	-2%	-12%	0%	-6%	?	-1%
Cc1cc(CSC(=N)N)c(CSC(=N)N)cc1C	.	-2%	-1%	-12%	-5%	.	-40%	-1%
CCOC(=O)C1=NNC(C(=O)c2ccc(Cl)cc2)C1c1ccccc1 (stereo not given)	-6.2%	27%	12%	11%	-22%	-24%	-4%	6%
O=C(O)C1Cc2ccccc2CN1C(=O)CSc1nnc2ccccn12 (stereo not given)	.	10%[46.1 µM]	3%	3%	3%	.	8%	.
O=C(Nc1ccccc1C(F)(F)F)c1ccccc1Br	.	2%	2%	-19%	-9%	.	-9%	.
O=C(Cn1c(O)c(/C=C2\C=Nc3ccccc32)sc1=O)N1CCOCC1	.	.	0%	-11%	3%	.	.	-1%
Cc1cccc(C)c1OCC(=O)Nc1ccccc1C(=O)N1CCOCC1	.	3%	-5%	-17%	-16%	.	-1%	3%
O=c1[nH]c(=O)n(Cc2ccco2)c(O)c1C=NCCN1CCOCC1	-1.1%	6%	?	-4%	-6%	-7%	-15%	2%
COc1ccc(N2CCN(C(=O)/C=C/c3ccco3)CC2)cc1	.	-3%[46.1 µM]	1%	-4%	-8%	.	14%[46.1 µM]	1%
COc1ccc(-n2c(SCC(=O)N3CCc4ccccc43)nnc2-c2c[nH]c3ccccc23)cc1	4.2%	-2%	-8%	1%	-5%	?	-5%	0%
CCN(CC)CCCNC(=O)CCCn1ncn2c(cc3occc32)c1=O	-1.1%	-8%[46.1 µM]	.	.	-17%	-4%	.	.
CCOc1ccc(S(=O)(=O)N2CCCC(C(=O)NCC3CCCO3)C2)cc1 (stereo not given)	.	.	4%	-1%	32%	.	.	-9%
COC(=O)c1ccccc1Nc1ccnc(Cl)n1	.	-3%[46.1 µM]	.	5%	3%	.	3%	.
Cc1ccc(C(=O)NCc2ccco2)cc1S(=O)(=O)N1CCCC1	.	7%	4%	-7%	31%[activator]	.	?	7%
N=C1CCCN1CC(=O)c1cccs1	.	7%[46.1 µM]	0%	2%	-4%	.	8%	3%
CC(C)c1cc(-c2cc(-c3ccccc3)on2)nc(NC2CCCC2)n1	.	0%	-4%	-20%	-27%	.	.	4%
O=C(Nc1cccc(C(F)(F)F)c1)c1cccnc1N1CCOCC1	-3.7%	-3%	-15%	3%	-17%	0%	-7%	2%
O=C(/C=C/Nc1ccc(Nc2ccccc2)cc1)c1cccs1	.	8%[46.1 µM]	-2%	-1%	25%	.	?	?
CN(CC(=O)Nc1cccc(C#N)c1)S(=O)(=O)c1cc2c(cc1Cl)NC(=O)CO2	1.8%	.	.	.	?	2%	1%[46.1 µM]	.
COC(=O)C1=C(C)N(CC2CC2)C(=NCc2cccc(C(F)(F)F)c2)N[C@H]1c1ccccc1	.	.	?	1%	?	.	.	8%
Cc1ccc(CN2CC(C(=O)NCC(=O)Nc3c(C)cccc3C)CC2=O)cc1 (stereo not given)	.	26%	5%	3%	22%	.	?	.
Cc1ccc(C(=O)NC(C)c2ccc(F)cc2)cc1 (stereo not given)	2.9%	-12%	9%	68%	0%	-16%	-19%	-3%
O=C(CNS(=O)(=O)Cc1ccccc1)NCc1ccccc1	.	12%[46.1 µM]	-1%	-18%	62%[activator]	.	-4%	-43%
Fc1cnc(N/N=C/c2ccc(-c3ccc(Br)cc3)o2)nc1N1CCOCC1	.	0%[46.1 µM]	-2%	33%	-16%	.	5%[46.1 µM]	1%
CCN(CCCn1c(=S)[nH]c2ncccc2c1=O)c1ccccc1	-5.8%	0%	2%	18%	2%	-16%	-18%	-13%
CCC(CC)C(=O)c1c[nH]c(C(=O)NCCc2ccccn2)c1	4.0%	15%	6%	52%	-7%	0%	-3%	21%
O=C1COc2cc(S(=O)(=O)CCC(=O)NC3CCCCC3)c(Cl)cc2N1	-5.3%	.	.	.	-17%	-4%	-2%[46.1 µM]	.
CCn1c(N2CCN(C(=O)C34CC5CC(CC(C5)C3)C4)CC2)nc2ccccc21	0.2%	?	-2%	4%	?	-7%	0%	-29%
CSc1ccc(CCNC(=O)CN2C(=O)COc3ccc(S(=O)(=O)N4CCCC4)cc32)cc1	2.6%	?	.	.	4%	4%	-21%[46.1 µM]	.
O=C(COc1coc(CN2CCc3ccccc32)cc1=O)Nc1ccccc1	.	5%	2%	13%	-16%	.	1%	.
Cc1ccc(Cn2cc(SCC(=O)Nc3nccs3)c3ccccc32)cc1	1.3%	.	7%	9%	7%	-71%	.	6%
O=C(Nc1ccc(Br)cc1)c1csc(-c2ccncc2)n1	.	?	-2%	-30%	?	.	-1%	-2%
CN1C(=O)c2cccc(NC(=O)Cc3ccccc3)c2C1=O	-0.8%	.	7%	2%	-12%	-15%	.	-15%
O=C(Nc1ccc2c(c1)OCO2)c1cccn(Cc2cccc(F)c2)c1=O	-0.5%	.	.	.	-21%	-19%	3%[46.1 µM]	.
CCc1c(C)nc2ncnn2c1Nc1ccc(C)c(C)c1	-3.5%	-10%	18%	41%	?	5%	-6%	-7%
Cc1cc(SCC(=O)NC2CC2)nc2ccccc12	.	3%	-4%	7%	-8%	.	-14%	.
CCN(c1ccccc1)S(=O)(=O)c1cc(C(=O)NCC(c2ccco2)N2CCCCC2)ccc1C (stereo not given)	.	?	-6%	2%	0%	.	?	.
Cc1nc(Oc2ccccc2)c2oc3ccccc3c2n1	-6.2%	-6%	-1%	?	-20%	?	?	-6%
COc1ccc(CNC(=O)C2CCN(S(=O)(=O)c3ccc4c(ccn4C)c3)CC2)cc1	-2.8%	6%[46.1 µM]	.	.	-16%	?	-4%[46.1 µM]	.
Cc1csc2ncc(C(=O)Nc3ccccc3Cl)c(=O)n12	.	.	0%	9%	67%[activator]	.	.	-10%
CCCNC(=O)NNC(=O)c1cc(-c2ccc3c(c2)OCO3)nc2ccccc12	.	-11%	2%	-17%	111%[activator]	.	8%	20%
O=C(Nc1ccc(Cl)cc1Cl)c1ccc2c(=O)n3c(nc2c1)CCC3	.	?	-6%	-27%	-1%	.	?	.
COCCCNC(=O)c1ccc(NC(=O)N2CCCCc3ccccc32)cc1	0.4%	.	.	.	-10%	2%	12%[46.1 µM]	.
COc1ccccc1CNC(=O)C1Cc2cc(S(=O)(=O)N3CCCC3)ccc2N1C(C)=O (stereo not given)	.	17%[46.1 µM]	-1%	3%	1%	.	0%[46.1 µM]	2%
Cc1ccc(C2CC2c2n[nH]c(=S)n2-c2ccc(Cl)cc2)cc1 (stereo not given)	-12%	-1%	25%	35%	-27%	-3%	-23%	2%
O=c1cc(N2CCC3(CC2)OCCO3)[nH]c(=O)n1C1CCCCC1	3.6%	9%	-1%	9%	17%	-7%	23%	-4%
CCn1cc(S(=O)(=O)N2CCCC2)cn1	.	-10%[46.1 µM]	1%	1%	-19%	.	7%[46.1 µM]	26%
O=C(CCC(=O)N1CCN(S(=O)(=O)c2ccc(Cl)cc2)CC1)Nc1ccc2ccccc2c1	-4.2%	?	19%	26%	-22%	8%	?	-4%
CCOCCCNC(=O)C(NC(=O)c1cnccn1)c1ccc(C)cc1 (stereo not given)	-4.3%	-3%	-2%	-5%	11%	5%	-7%	5%
CCOC(=O)/C(=N\Nc1ccc(OC)cc1)c1csc(Nc2ccccc2)n1	2.5%	?	-4%	-22%	.	?	-1%	18%
O=C(O)c1[nH]c2ccccc2c1CC(=O)N1CCN(c2ccccc2)CC1	.	10%[46.1 µM]	-1%	3%	-5%	.	-5%[46.1 µM]	.
COC(=O)c1ccc(NC(=O)COc2ccc([N+](=O)[O-])cc2)cc1	.	-25%	2%	0%	-14%	.	18%	1%
Cc1nnc(NC(=O)c2sc3nc(-c4cccs4)cc(C(F)(F)F)c3c2N)s1	-9.5%	?	-8%	-24%	?	?	-21%	8%
CSc1nnc([C@H](Cc2c[nH]c3ccccc23)NC(=O)OC(C)(C)C)o1	.	?	0%	-3%	59%[activator]	.	?	-1%
COc1cccc(NC(=O)C2CCCN(S(C)(=O)=O)C2)c1 (stereo not given)	.	-4%[46.1 µM]	1%	16%	3%	.	-4%[46.1 µM]	-2%
O=c1c2ccccc2ncn1Cc1ccc(Cl)c(Cl)c1	.	.	-12%	?	-24%	.	.	-28%

Other structures follow:
SMILES	Cruzain inh Det	MARV entry inh	SARS PLP yeast	RE007 growth inh	StopGo reporter	Cruzain noTriton	Lassa entry inh	NS1 function inh
CCCCN(C(=O)Cn1nnc2ccccc21)C(C(=O)NCCOC)c1cccs1 (stereo not given)	-0.5%	10%	9%	30%	-5%	-3%	-2%	3%
CN(CC(=O)Nc1ccc(F)c(F)c1F)C(=O)C1CC(=O)N(c2ccc3c(c2)OCCO3)C1 (stereo not given)	.	-1%	-5%	3%	2%	.	-6%	.
CCOCCCNCC(=O)Nc1ccc(S(=O)(=O)NC(C)CC)cc1 (stereo not given)	.	?	2%	12%	12%	.	16%	?
CC(C)OCCCn1c(SCc2ccccc2Cl)nc2c(sc3ccccc32)c1=O	2.1%	.	.	.	-14%	16%	3%[46.1 µM]	.
C=CCNC(=O)c1c(CSc2ccccc2)noc1C(=O)NCc1ccccc1	.	.	-1%	-5%	1%	.	.	-10%
COc1cc2c3c(c1OC)-c1cc4c(cc1CC3(C#N)N(C(=O)c1ccccc1)CC2)OCO4 (stereo not given)	.	-1%	.	4%	4%	.	?	.
